# gsp antag – gsp mutant antagonism; AID 624288; Potency, µM (titrated, usually from 76.9 µM), without a hit: top-dose activity change, negative = inhibition, most hits filed as inhibitors; actives 0.4% (n = 340,000); gsp-mutant cells, cAMP HTRF, 30 min; control for the full effect not named in the record; active = falling curve of any shape with a large fitted effect; inconclusive = falling curve, mostly with a smaller effect; inactive = flat or rising curve; cell line not stated here;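 also: intracellular cAMP measured with PDE inhibitor Ro 20-1724 present during compound exposure; potency is read from the fitted curve at half-maximal effect; % is scaled to controls: 0 for no effect and ±100 for the full control effect; nearly all actives have a fitted effect of over 65% in size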
#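 Cells in G418 medium, seeded 16-24 h, 37C; buffer exchange to DPBS + 1 mM CaCl2, 0.5 mM MgCl2, 0.05% BSA; cpds in DMSO + […] (300 uM stock), 30 min 37C; HTRF cAMP detection.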
# Sfp PPTase inh – Sfp phosphopantetheinyl transferase inhibition; Q9F4F7; actives 3.5% (n = 310,000); Biochemical Sfp PPTase activity, qHTS; Potency, µM, without a hit: max response, negative = inhibition, usual class: inhibitors; AID 1490; active = well fitted inhibition curve with a large enough effect; inconclusive = small, poorly fitted or top-dose-only effect, or another doubt; inactive = no such curve, though single readings can be large or run the other way;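 also: the enzyme is Sfp with the accession as filed and its product quenches rhodamine fluorescence; potency is read from the fitted curve at half-maximal effect; 0% = enzyme reaction without inhibitor and -100% = no enzyme wells; top concentration of the series not given in the record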
#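 Reaction rates are the 30-min fluorescence difference (ex 525, em 598 nm) in wells containing 15 nM Sfp, 5 uM rhodamine-CoA and 12.5 uM BHQ-2-YbbR at pH 7.6 with 10 mM MgCl2.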
# Menin-MLL FL inh – displaces fluorescein MLL peptide from human menin; Fluorescence polarization, fluorescein-MLL peptide displacement from menin; FP activity change, % at 61.4 µM; 290,000 tested, under 10 active; inconclusive = falling polarisation curve, or a change in total fluorescence; inactive = total fluorescence flat and polarisation flat or rising; no compound was filed as active; the % refers to the polarisation; negative = inhibition;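 also: % of control where 0% means no effect; inhibitors lower the polarisation; unlabelled MLL peptide was the positive control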
# CtBP-E1A inh – blocks the CtBP interaction with E1A; AID 651724; activity change, % (test concentration not listed); AlphaScreen GST-E1A/His-CtBP binding, 1536-well; stronger effect = lower value; control for the full effect not named in the record; actives 0.49% (n = 340,000); in the data active means activity change below about -65%; inconclusive means about -30% to -65%; inactive means above about -30%; also: % is scaled to controls: 0 for no effect and ±100 for the full control effect; compound concentration not given in the record
#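 GST-E1A and His-tagged CtBP (125 nM each as 5X stock) were preincubated with pin-transferred compound for 2 h at 37 °C in the dark, then glutathione donor and nickel acceptor beads were added for 1 h before AlphaScreen reading.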
# ClpP mod – qHTS Assay for Activators of ClpP; actives 1.9% (n = 340,000); Potency, µM (highest dose often 57.5 µM), inactives show top-dose activity change, negative = active; purified B. subtilis ClpP, FRET peptide cleavage, 20 min; ATP-dependent Clp protease proteolytic subunit (Bacillus subtilis (strain 168)), P80244; active = well fitted falling curve with a large enough effect; inconclusive = small, poorly fitted or top-dose-only effect; inactive = no such curve, though single readings can be large or run the other way; also: potency is read from the fitted curve at half-maximal effect; the source files actives as falling curves though it sought activators and does not explain the sign; nearly all actives have a fitted effect of over 65% in size; many hits overshoot -100%
#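 ClpP 10 microg/mL final, pH 8 Tris/KCl buffer with BSA, glycerol, Tween-20; compound pinned in; FRET-FV substrate; RT 20 min; Ex320/Em430; ΔFRET vs ADEP 5.8 microM, DMSO, no enzyme.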
# gsp agonist – gsp mutant agonism | Potency, µM (highest dose often 76.9 µM), without a hit: top-dose activation (cAMP increase), hits mostly activators | AID 624287 | actives 0.13% (n = 340,000) | gsp mutant cells, cAMP HTRF, 30 min; control for the full effect not named in the record; active = well fitted activation curve with a large enough effect; inconclusive = small, poorly fitted or top-dose-only effect, or another doubt; inactive = no such curve, though single readings can be large or run the other way; cell line not stated here;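 also: phosphodiesterase inhibitor Ro 20-1724 added with compounds to block cAMP breakdown; potency is read from the fitted curve at half-maximal effect; nearly all actives have a fitted effect of over 60% in size; about a fifth of the inactives were tested at one dose only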
#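 Cells in DMEM/10% FBS with G418 were pretreated with compounds in DMSO plus […] (300 uM stock) for 30 min at 37C. cAMP was measured by HTRF (cAMP-d2 plus anti-cAMP antibody-K) after 30 min at room temperature.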
# TRPV1 potentiator – human TRPV1 potentiation | TRPV1-expressing cells, Fluo-8 calcium influx, capsaicin EC20 potentiation; host cell line not named in the record; control for the full effect not named in the record | potentiation, % at 8.33 µM | actives 0.02% (n = 320,000); active means potentiation above 80%; inconclusive means 30% to 80%; inactive means below 30%; also: 0% is about no effect
# Target sequence (Q8NER1 whole entry, looked up): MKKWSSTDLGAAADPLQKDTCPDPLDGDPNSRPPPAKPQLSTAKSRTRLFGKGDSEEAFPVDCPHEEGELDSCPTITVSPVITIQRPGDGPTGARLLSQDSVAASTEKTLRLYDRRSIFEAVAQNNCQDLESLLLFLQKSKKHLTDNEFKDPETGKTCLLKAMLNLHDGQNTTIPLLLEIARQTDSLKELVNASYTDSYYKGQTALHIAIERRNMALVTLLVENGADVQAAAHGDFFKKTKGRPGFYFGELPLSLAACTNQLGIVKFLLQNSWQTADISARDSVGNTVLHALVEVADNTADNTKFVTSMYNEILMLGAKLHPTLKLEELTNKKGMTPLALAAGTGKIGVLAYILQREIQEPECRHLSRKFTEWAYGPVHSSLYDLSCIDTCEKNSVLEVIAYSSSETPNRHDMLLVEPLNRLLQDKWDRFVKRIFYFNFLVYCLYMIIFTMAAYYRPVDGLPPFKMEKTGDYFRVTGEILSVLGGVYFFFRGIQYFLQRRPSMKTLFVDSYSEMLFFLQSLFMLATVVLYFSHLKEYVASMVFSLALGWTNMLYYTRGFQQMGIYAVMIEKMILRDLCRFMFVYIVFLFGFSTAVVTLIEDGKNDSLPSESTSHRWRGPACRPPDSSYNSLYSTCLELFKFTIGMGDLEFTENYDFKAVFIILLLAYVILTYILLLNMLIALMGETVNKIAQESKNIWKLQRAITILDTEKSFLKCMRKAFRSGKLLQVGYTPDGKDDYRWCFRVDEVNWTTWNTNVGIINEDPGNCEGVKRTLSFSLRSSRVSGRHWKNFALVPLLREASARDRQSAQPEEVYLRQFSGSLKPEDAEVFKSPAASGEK
#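 TRPV1-expressing cells were cultured overnight at 35.5C and loaded with Fluo-8 calcium dye for 40 to 90 min at room temperature. After a 10 s baseline, compound was added and calcium influx was read kinetically for 3 min (ex 480/em 520 nm).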
# Starred values were filed as active, the others as inactive; ? = inconclusive; / = no result given; & = joins results of further samples; [ ] = dose if it differs, or a comment.
SMILES,gsp antag,Sfp PPTase inh,Menin-MLL FL inh,CtBP-E1A inh,ClpP mod,gsp agonist,TRPV1 potentiator
COc1cccc(CNC(=O)C(C)n2nc(C)n3c(cc4occc43)c2=O)c1 (stereo not given),5%,20%,/,4,-5.0%,14%,?
CCC(Sc1nc2ccsc2c(=O)n1-c1ccc(Cl)c(C)c1)C(=O)NCc1ccco1 (stereo not given),-2%,9%,7.2,-11,-1.5%,?,-2
O=C(CCN1C(=O)c2ccccc2C1=O)C1=NN[C@@H]2C(=O)N(c3cccc(F)c3)C(=O)[C@H]12,1%,30%,2.2,8,-0.7%,-6%,16
Cc1ccc(/C(N)=N/OC(=O)c2cccc(Cn3cc(C(F)(F)F)ccc3=O)c2)cc1,-24%,-1%,0.7,11,-0.3%,2%[15.4 µM],9
COc1ccc(C(C)=O)cc1CSc1nnc(-c2ccc(Cl)cc2)n1-c1ccccc1,-30%,-11%,1.5,-14,0.3%,-37%[inhibitor],20
Cc1nnc(SCc2nc(N)nc(Nc3ccccc3)n2)s1,9%,1%,0.8,-18,-3.0%,1%,/
COc1cccc(CNc2cccc3cccnc23)c1O,-13%,4.5µM*,0.8,-16,-1.9%,8%,4
C/C(=N/NS(=O)(=O)c1ccc(C)cc1)c1c[nH]c2ccccc12,-5%,-13%,1.8,6,-0.7%,-20%,12
Cc1cc(C)n(-c2nnc(C)n2NS(C)(=O)=O)n1,2%,-20%,0.8,5,1.1%,20%,5
Cn1c(SCc2ccc(C#N)cc2)nnc1-c1ccccc1,-6%,9%,-3.3,4,0.6%,-40%[inhibitor],-3
Cc1cc(C)n(CC(=O)c2ccc(Br)cc2)c(=O)c1C#N,-17%,0%,8.5,4,-0.6%,7%,-6
CC1=C(C(=O)N(C(C)C)C(C)C)CC(CC(=O)NCCN2CCOCC2)C(=O)N1Cc1ccccc1 (stereo not given),/,/,/,3,1.5%,-36%[inhibitor],/
O=C(OCCc1cc2ccccc2c(=O)o1)c1ccco1,-1%,/,/,6,-1.7%,1%,-7
O=C(COc1coc(CN2CCc3ccccc3C2)cc1=O)Nc1ccc(F)cc1F,-9%,/,/,6,/,6%[15.4 µM],8
COCCCN1C(=O)c2ccc(C(=O)NCc3ccccn3)cc2C1=O,6%,3%,/,8,/,-15%,9
O=C(c1cccn2c(=O)c3cc(Cl)ccc3nc12)N1CCN(Cc2ccc3c(c2)OCO3)CC1,-15%,-2%,1.4,5,-17%,11%,2
COc1ccccc1N1CCN(C(=O)/C=C/c2c(Cl)nc3ccccn23)CC1,8%,1%,1.4,-3,/,30%,6
COc1ccccc1N1CCN(C(=O)CCn2c(=O)[nH]c3ccsc3c2=O)CC1,6%,8%,2.3,4,4.3%,15%,12
Cc1ccc(CN2C(=O)CCC2C(=O)NCC2CCCO2)cc1 (stereo not given),0%,12%,-3.0,16,-0.7%,-29%,-14
O=C(CC1SC(=O)N(Cc2ccccc2Cl)C1=O)Nc1nccs1 (stereo not given),-7%,-13%,7.7,9,/,-12%[15.4 µM],1
Cc1ccc(S(=O)(=O)N2CCC[C@H]2C(=O)NC2=NCCS2)cc1,11%,/,/,1,-0.8%,1%[15.4 µM],/
CCOC(=O)C1(Cc2ccc(OC)cc2)CCN(C(=O)CN2CCOC2=O)CC1,0%,10%,-6.8,7,/,-6%[15.4 µM],3
CCC1CCCCN1C(=O)CSc1nnc(-c2cccc(Cl)c2)o1 (stereo not given),-22%,-33%,7.1,-7,-0.2%,-71%[inhibitor],-7
O=C1CSC(=S)N1Cc1ccccc1,/,/,/,-6,0.1%,30%,/
O=C1Nc2ccccc2/C1=N\N=C\c1ccc(O)c(O)c1,-4%,?,1.3,-3,/,-13%[15.4 µM],13
# Next section
SMILES,gsp antag,Sfp PPTase inh,Menin-MLL FL inh,CtBP-E1A inh,ClpP mod,gsp agonist,TRPV1 potentiator
CCOc1ccc(NC(=O)C2CCCN2S(=O)(=O)c2ccc(OCC)cc2)cc1 (stereo not given),-44%,2%,0.5,2,/,23%[15.4 µM],-15
CCCC(=O)Nc1ccc(-c2csc(-c3cccnc3)n2)cc1,-5%,1%,-6.0,3,1.7%,3%[15.4 µM],-1
Cn1c(=O)c2c(nc(N3CCN(Cc4ccccc4)CC3)n2CCCc2ccccc2)n(C)c1=O,-11%,-17%,-0.7,-18,-9.6%,-5%,4
CCN(CC)CCCn1c(C)cc2c(c1=O)C(c1ccc(OC)c(OC)c1OC)C(C#N)=C(N)O2 (stereo not given),-7%,-8%,0.6,3,0.4%,-2%,-15
O=C(O)c1ccc(Nc2c3ccccc3nc3ccccc23)cc1,2%,-3%,-1.4,-12,1.0%,-12%[15.4 µM],-23
O=C(N/N=C/c1ccccc1)c1ccc(N2CCCC2=O)cc1,-5%,/,/,-2,0.4%,18%,/
CC1=C(C(=O)Nc2cc(C(=O)NCCCOC(C)C)ccc2C)SCCO1,-5%,5%,0.1,0,1.4%,-5%[15.4 µM],4
Cc1ccc(S(=O)(=O)CC(=O)c2ccc3c(c2)OCCO3)cc1,-1%,13%,1.7,-13,/,14%,-2
CSc1ccccc1NC(=O)CN1CCN(c2ccccn2)CC1,?,11%,-1.3,-4,-6.4%,-4%,-11
CCOC(=O)CC(=O)CSc1ccc2nnc(-c3ccc(F)cc3)n2n1,2%,1%,5.7,-12,-27%,15%,10
CCOc1ccc(OCC(=O)OCC(=O)NCC2CCCO2)cc1 (stereo not given),3%,/,/,-1,-1.0%,1%,-13
COc1cccc(NC(=O)CSc2nnc(-c3ccc(C)cc3)o2)c1,-2%,8%,1.8,5,-3.4%,-23%,-23
Cc1cccc(N2CCN(C(=O)Cn3cccc3C(=O)c3ccccc3)CC2)c1C,-20%,8%,3.7,-12,-0.8%,-11%,5
CCc1ccc(C(=O)N/N=C(\C)c2cccnc2)s1,10%,13%,/,3,1.3%,-20%,-21
O=C(Nc1ccccc1)c1ccc(-c2ccccc2Cl)o1,-14%,11%,4.6,-8,-18%,/,4
Cc1cc[n+](-c2nc3ccccc3nc2C(=C=[N-])C#N)cc1,-4%,-29%,?,-22,-1.5%,-32%[inhibitor],6
COc1cc(SC)ccc1C(=O)OC(C)C(=O)Nc1ccc(NC(C)=O)cc1 (stereo not given),?,-6%,-4.4,-4,/,5%[15.4 µM],9
CN(C)CCCNCC(=O)c1c(-c2ccccc2)n(C)c2ccccc12,?,40µM*,/,0,?,-3%,0
C/C(=N/Nc1nc(C)c(C)s1)c1cccc([N+](=O)[O-])c1,-7%,-21%,-5.8,/,-1.6%,-9%,-5
O=C1CCN(CCc2ccccc2)CCN1[C@H](CSc1ccccc1)Cc1ccccc1,?,-14%,1.5,0,-2.0%&6.1%,-23%,-14
Cc1nc2ccc(NC(=O)c3ccc(F)c(S(=O)(=O)N4CCOCC4)c3)cc2s1,-6%,16%,1.8,-2,1.0%,8%,-4
O=S(=O)(c1cccc(-c2n[nH]c(=S)o2)c1)N1CCOCC1,3%,25µM*,0.9,0,/,9%[15.4 µM],3
CN(C)CCNC(=O)CNC(=S)N(Cc1ccccc1)Cc1cccnc1,4%,9%,0.5,-2,-0.4%,1%[15.4 µM],6
CC1CCCCC1NC(=O)CCCCCn1c(=S)[nH]c2ccsc2c1=O (stereo not given),3%,3%,-0.4,/,0.4%,2%,6
CN(C(=O)c1cc2ccccc2o1)c1c(N)n(Cc2ccccc2)c(=O)[nH]c1=O,4%,/,/,-13,-17%,?,/
NS(=O)(=O)c1cccc(NC(=O)Cn2cc(C(F)(F)F)cc(Cl)c2=O)c1,6%,9%,1.6,5,-4.8%,41%,-10
CCc1ccc(NC(=O)CN2CCC(C(=O)c3ccc(OC)cc3)CC2)cc1,-14%,-1%,/,-2,/,11%,-6
Cc1ccc(NC(=O)CN(C)C(=O)COC(=O)c2ccc(NC(=O)CC#N)cc2)cc1,4%,/,/,0,-2.9%,-27%,/
